# From PubChem BioAssay
# GALR2 ag: activates the human galanin receptor 2; O43603; GALR2-expressing cells, agonist activation read-out; activation, %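 (tested at 5 µM)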; 0.48% of 140,000 active;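 active = above mean plus 3 SD of all compounds, about 5% in these data, not always enough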;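 note: 0% = vehicle buffer wells and 100% = reference agonist at full effect; tested in CHO reporter cells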
# Target sequence (O43603 whole entry, looked up): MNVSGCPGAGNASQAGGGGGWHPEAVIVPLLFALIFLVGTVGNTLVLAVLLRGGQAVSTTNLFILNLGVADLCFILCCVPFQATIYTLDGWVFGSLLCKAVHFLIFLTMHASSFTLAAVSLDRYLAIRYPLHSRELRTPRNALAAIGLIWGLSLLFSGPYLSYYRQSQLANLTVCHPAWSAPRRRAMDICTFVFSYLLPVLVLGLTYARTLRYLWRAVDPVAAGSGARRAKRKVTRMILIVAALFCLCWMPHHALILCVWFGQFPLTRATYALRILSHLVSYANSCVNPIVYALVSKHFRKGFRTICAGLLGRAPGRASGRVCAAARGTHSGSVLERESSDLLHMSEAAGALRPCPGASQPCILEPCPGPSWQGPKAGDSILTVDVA
# INS promoter inh: TRM-6 insulin promoter activity inhibition. TRM-6 cells (human fetal islet line), insulin promoter-eGFP reporter, imaging; reporter expression induced with tamoxifen. 0.9% of 130,000 active. AID 1273. inhibition, % at 2 µM;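 active = inhibition above the mean plus 3 SD, with well images judged a real hit on visual review, cut at about 60% in these data, passing the limit was not always enough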
# RGS16-Gao HTS: RGS16-Galphao interaction regulator (human); O15492+P09471; 0.38% of 220,000 active; binding response (% of control), % at 10 µM; bead-based flow cytometry RGS16-Galphao binding, fluorescence; actives lie on both sides;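 active = below 25% or above 175%, edge rows of some plates excepted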;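 note: Galphao activated by GDP with aluminum fluoride before binding; 100% = wells without compound and 0% = beads without RGS; some results beyond the cut were filed as inactive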
# Target sequence (O15492 whole entry, looked up): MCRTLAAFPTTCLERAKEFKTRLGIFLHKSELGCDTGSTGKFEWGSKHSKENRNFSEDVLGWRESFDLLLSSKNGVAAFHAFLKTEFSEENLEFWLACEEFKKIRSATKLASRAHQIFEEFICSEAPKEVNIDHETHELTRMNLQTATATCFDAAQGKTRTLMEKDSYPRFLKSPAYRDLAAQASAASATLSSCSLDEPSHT
# Target sequence (P09471 whole entry, looked up): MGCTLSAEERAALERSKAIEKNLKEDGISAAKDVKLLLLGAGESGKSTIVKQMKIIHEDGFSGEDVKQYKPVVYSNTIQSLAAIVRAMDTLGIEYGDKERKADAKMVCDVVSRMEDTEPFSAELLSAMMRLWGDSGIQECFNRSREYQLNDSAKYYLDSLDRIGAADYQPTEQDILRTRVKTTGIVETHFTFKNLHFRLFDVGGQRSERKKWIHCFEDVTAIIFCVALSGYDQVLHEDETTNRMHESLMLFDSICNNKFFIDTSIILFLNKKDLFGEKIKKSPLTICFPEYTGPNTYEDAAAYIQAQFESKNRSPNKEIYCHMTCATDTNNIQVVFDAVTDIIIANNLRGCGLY
# PKD1 kinase inh: inhibitors of human PKD1 kinase; Q15139; 0.056% of 200,000 active; inhibition, %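 (about 10 µM by stock and volumes)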; PKD1 kinase fluorescence polarization assay; AID 797;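 active = inhibition of 50% or more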;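 note: controls were vehicle for no effect and a reference inhibitor for full effect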
# HSV augment: increases HSV replication in cells; HSV replication augmentation in cells, fold increase; maximum fold increase; 0.005% of 220,000 active;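 active = peak rise of 1.5-fold or more in the series; tested in PC3 cells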;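 note: first round at 10 µM; read as green reporter fluorescence; hits show the peak of a series up to 25 µM; 1 = signal of infected wells without compound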
# INS promoter inh cell count: further read-out of INS promoter inh, marked with its call; normalized cell count, %; measured here: cell count, toxicity; reference of the scale not given here;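 cells exposed to compound for 48 h; stained nuclei by imaging scaled within each plate; lower means fewer cells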
# HSV augment primary fold: also measured in HSV augment; calls as there; fold increase; compound at 10 µM; measured here: primary screen fold increase 10 uM; tested in PC3 cells;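 GFP signal in the first replicate; 1 = infected wells without compound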
# * hit, by the source's call; i = inactive; / = not tested or not shown.
SMILES,GALR2 ag,INS promoter inh,INS promoter inh cell count,RGS16-Gao HTS,PKD1 kinase inh,HSV augment,HSV augment primary fold
CSc1ncc(C(=O)O)n1-c1ccc(F)cc1,0.2,42,170,364,-4,i,0.85
Cc1cc(-c2c(C)[nH]n(-c3ccccc3)c2=O)n[nH]1,/,18,155,100,0,i,0.95
CC(C)(C)NC(=O)C(c1ccccn1)N(C(=O)C1CSC(=O)C1)c1ccc(F)cc1 (configuration not stated),-1.2,-37,66,98,-1,i,0.83
Nn1c(Cc2ccccc2F)nnc1SCC(=O)Nc1cccc(S(=O)(=O)NC2=NCCCCC2)c1,/,12,87,110,-5,i,0.96
COC(=O)c1nc2ccccn2c1F,/,/,/,108,1,i,0.96
Nc1ccc(C(=O)N(CCO)CCO)cc1,/,/,/,98,-2,i,0.88
C[C@@H]1C=C(C(=O)N2CCN(C)CC2)O[C@H](OCc2ccc(CO)cc2)C1,/,/,/,98,8,i,0.72
Fc1ccccc1CSc1nncn1NCc1cccs1,-2.8,62,136,105,-7,i,0.96
Cc1cc(/C=N/NC(=O)CC2(C)OCCO2)c(C)n1-c1cc(Cl)cc(Cl)c1,-1.3,-10,75,88,0,i,1
COC(=O)C1[C@H]2C(=O)N(Cc3cccs3)C[C@]23C=C[C@H]1O3 (some centres not stated),0.0,/,/,109,-5,i,0.97
Cn1c(SCC(=O)Nc2ccc(Br)cc2F)nnc1-c1ccco1,/,/,/,111,-3,i,0.82
COc1ccc(C2(CNC(=O)c3cccc([N+](=O)[O-])c3)CCOCC2)cc1,-1.0,33,82,97,-6,i,1
c1ccc2c(c1)OCc1cn[nH]c1-2,/,/,/,100,/,i,1.1
COc1cccc(NC(=O)C2C3C=CC(O3)C2C(=O)NCc2cccnc2)c1 (configuration not stated),-1.3,-9,60,102,3,i,0.86
O=C(Nc1ccc(F)c(Cl)c1)C1CC(=O)n2c(nc3ccccc32)N1 (configuration not stated),/,/,/,103,-2,i,0.72
CCOC(=O)C1CCN(Cc2cn[nH]c2-c2ccc(C)cc2)CC1,-1.8,/,/,109,-17,i,0.75
Cc1ccc(CNC(=O)CCCn2c(=O)c3ccccc3n(CC(=O)NCc3ccco3)c2=O)cc1,-0.5,-26,129,101,-14,i,0.9
CC(=O)c1cccc(NC(=S)NCCc2ccc(F)cc2)c1,/,/,/,100,-1,i,0.99
CCn1c2ccccc2c2cc(/C=N/O)ccc21,/,/,/,102,-2,i,0.77
COC(=O)c1ccc(CON2C(=O)c3ccccc3C2=O)cc1,-3.6,-59,93,93,8,i,1
CCc1cc(=O)n2c([nH]c3ccccc32)c1C#N,-2.1,-16,78,106,-8,i,1.2
COc1cc([N+](=O)[O-])ccc1NC(=S)Nc1cc(C(=O)OC(C)C)cc(C(=O)OC(C)C)c1,-0.5,/,/,101,-5,i,1
COc1ccc(-c2nnc(NC(=O)CSc3ccccc3)s2)cc1OC,2.9,/,/,108,5,i,0.83
CSc1nc2ccccc2cc1/C=C(\C#N)c1ccc(Cl)c(Cl)c1,-0.2,-31,77,93,10,i,1.1
CCN(C(=O)COC(=O)C(Cc1ccccc1)N1C(=O)c2ccccc2C1=O)C1CCS(=O)(=O)C1 (configuration not stated),-0.1,/,/,99,4,i,0.87

# Three compounds from above, limited to HSV augment primary fold.
compound	HSV augment primary fold
CC(=O)c1cccc(NC(=S)NCCc2ccc(F)cc2)c1	0.99
c1ccc2c(c1)OCc1cn[nH]c1-2	1.1
CSc1nc2ccccc2cc1/C=C(\C#N)c1ccc(Cl)c(Cl)c1	1.1

# Later entries.
SMILES,GALR2 ag,INS promoter inh,INS promoter inh cell count,RGS16-Gao HTS,PKD1 kinase inh,HSV augment,HSV augment primary fold
c1ccc(Cn2nnc3cnccc32)cc1,-1.5,-9,76,102,-4,i,0.81
C/C(=N/NS(=O)(=O)c1ccccc1)c1ccc(NC(=O)C2CC2)cc1,/,/,/,101,-2,i,0.8
C/C(=N\NC(=O)CCCNc1cccc(C)c1)c1ccncc1,/,/,/,66,-3,i,1
COc1ccc(NS(=O)(=O)c2ccc(N/N=C(\C)c3ccncc3)c([N+](=O)[O-])c2)cc1,0.2,-3,111,104,3,i,0.79
COc1ccc(N(C(=O)c2cccnc2)S(=O)(=O)c2cccc([N+](=O)[O-])c2)cc1,/,/,/,101,3,i,0.98
Cc1ccc(NC(=O)c2ccc(NCCN)c([N+](=O)[O-])c2)cc1Cl,0.1,3,143,103,-5,i,0.86
CN(C(=O)Cc1noc2ccccc12)c1ccccc1,-1.8,-50,82,76,2,i,0.85
Cc1cc(C)cc(N(CC(=O)NCCSCc2ccccc2)S(C)(=O)=O)c1,/,-75,107,108,-2,i,0.68
Cc1cccc(CN2CCN(C3CCCC3)C(CCO)C2)n1 (configuration not stated),/,/,/,102,-4,i,0.92
O=C1c2ccccc2C(=O)c2c(NCCCN(CCO)CCO)cccc21,/,-50,134,99,7,i,0.69
CN1C(=S)N(c2cccnc2)C(=O)/C1=C\c1ccc(N(C)C)cc1,/,i,112,107,3,i,1.3
N#C/C(=C\c1ccc(-c2ccc(C(=O)O)cc2)o1)C(=O)NCC1CCCO1 (configuration not stated),-0.7,0,185,97,-4,i,0.92
O=C1CC(C2CCCO2)C(=O)N1c1cccc(Cl)c1 (configuration not stated),-0.6,/,/,97,-7,i,0.96
Cn1c(N2CCC(C(N)=O)CC2)nc2c1c(=O)n(Cc1ccc(Br)cc1)c(=O)n2C,0.2,-38,120,/,-10,i,0.76
O=C(NCC1COc2ccccc2O1)c1ccc(NC(=O)c2ccco2)cc1 (configuration not stated),-1.1,-481,25,99,-10,i,0.96
CCC(=O)N/N=C/c1ccc(-c2ccc(Cl)cc2)o1,/,/,/,104,0,i,0.99
Cn1nc(C(F)(F)F)c(C(=O)Nc2cccc(C(F)(F)F)c2)c1SCc1ccc(Cl)cc1,-2.7,/,/,101,-4,i,0.89
COc1ccc(Cl)cc1N1C(=O)C2CCCN2C1c1ccc(F)c(F)c1 (configuration not stated),-3.0,/,/,102,-2,i,1.1
Cc1cc(=O)oc2cc(OCCSCCN3CCCC3)ccc12,/,/,/,105,/,i,0.92
Cc1ccc(CC(NC(=O)c2ccccc2)C(=O)NC(C)C(=O)O)cc1 (configuration not stated),-2.9,14,119,112,-1,i,1.1
Cn1c(-c2cccs2)[n+](C)c2ccccc21,/,-9,106,107,-2,i,0.97
CCN(CC(=O)NC(C)C)Cc1nc2c(Br)cc(Br)cc2c(=O)[nH]1,/,/,/,96,/,i,1.1
C(=N\N1CCN(c2ccccc2)CC1)/c1ccccc1,/,/,/,100,12,i,0.94
CCCCn1c(=N)n(CC(=O)c2ccc(Br)s2)c2ccccc21,/,/,/,104,/,i,0.82
COc1ccc(C(c2sc3nc(C)nn3c2O)N2CCC(C(N)=O)CC2)cc1OC (configuration not stated),-1.8,80*,39*,102,-9,i,0.81

# 3 entries from above, with tabs:
Compound	GALR2 ag	INS promoter inh	INS promoter inh cell count	RGS16-Gao HTS	PKD1 kinase inh	HSV augment	HSV augment primary fold
COc1ccc(NS(=O)(=O)c2ccc(N/N=C(\C)c3ccncc3)c([N+](=O)[O-])c2)cc1	0.2	-3	111	104	3	i	0.79
COc1ccc(N(C(=O)c2cccnc2)S(=O)(=O)c2cccc([N+](=O)[O-])c2)cc1	/	/	/	101	3	i	0.98
Cc1ccc(NC(=O)c2ccc(NCCN)c([N+](=O)[O-])c2)cc1Cl	0.1	3	143	103	-5	i	0.86

# Remaining list, next part.
SMILES,GALR2 ag,INS promoter inh,INS promoter inh cell count,RGS16-Gao HTS,PKD1 kinase inh,HSV augment,HSV augment primary fold
O=C1c2ccc(Oc3ccc4c(c3)C(=O)N(CCCO)C4=O)cc2C(=O)N1CCCO,-2.2,19,93,100,2,i,1
O=C(CNC(=O)c1cccs1)OCC(=O)c1ccccc1Cl,/,-57,54,113,1,i,0.94
C=CCn1c(CCNC(=O)c2ccccc2F)nnc1SCC(=O)Nc1ccc(OC)cc1,/,/,/,101,-8,i,1
CCC(C)(C)NC(=O)C(c1ccccc1F)N(C(=O)c1ccn[nH]1)c1ccccc1 (configuration not stated),-1.1,-86,137,116,6,i,0.87
CCCCCCCC1CC(CSc2ncn[nH]2)OC1=O (configuration not stated),-0.4,43,140,106,-1,i,0.98
O=C(CNC(=O)/C(=C\c1ccc(F)cc1)NC(=O)c1ccccc1)OCc1ccccc1,-2.0,10,120,107,21,i,0.96
CCOC(=O)N1CCN(C(=O)CN(c2ccc(Oc3ccccc3)cc2)S(C)(=O)=O)CC1,-0.9,/,/,102,2,i,0.97
O=C(CSc1nc2c(cnn2-c2ccccc2)c(=O)[nH]1)N1CCCCC1,/,/,/,98,/,i,1
O=C(CCl)Nc1ccccc1Sc1ccccc1,-2.8,-10,126,97,2,i,1
CCC(CC)NC(=O)COC(=O)CCC(=O)c1ccc(Cl)cc1,/,25,33,117,-2,i,1
COc1ccc(-c2nnc3c4ccccc4c(C)nn23)cc1,0.7,-8,111,99,1,i,0.87
CCc1ccc(NC(=O)C(C)n2nc(C)c([N+](=O)[O-])c2C)cc1 (configuration not stated),/,17,100,100,7,i,0.97
COc1ccc(OCC(O)CNC(=O)Nc2ccc(C(C)(C)C)cc2)cc1 (configuration not stated),/,/,/,101,/,i,0.9
Cn1nc(-c2ccccc2)c(-c2nc(-c3cccc(C(F)(F)F)c3)no2)c1Cl,-2.1,-21,174,91,-4,i,1
O=C(N/N=C/c1ccco1)c1ccncc1,-0.6,/,/,105,-5,i,0.8
Cc1cnc(C(=O)Nc2nnc(C3CC3)s2)cn1,-2.5,5,88,99,1,i,0.8
Cc1ccc(-c2nnn(CC(=O)Nc3nnc(C(C)C)s3)n2)cc1,/,55,103,105,-5,i,1.1
N#Cc1c(Nc2cccc(F)c2)sc2c(O)cc(=O)[nH]c12,/,/,/,99,-1,i,1.5
CN(C(=O)CSc1nnc(C(F)(F)F)n1N)C1CCS(=O)(=O)C1 (configuration not stated),/,/,/,101,/,i,1
O=C(C1CCCO1)N1CCN(C(c2ccccc2)c2ccccc2)CC1 (configuration not stated),-1.5,-4,197,123,-14,i,0.88
CC1(C)Oc2ccc(NC(=O)C3COc4ccccc4O3)cc2O1 (configuration not stated),-1.5,57,151,101,-13,i,0.75

# Part of the list above, set out differently:
# Fields – GALR2 ag, INS promoter inh, INS promoter inh cell count, RGS16-Gao HTS, PKD1 kinase inh, HSV augment, HSV augment primary fold
- O=C(N/N=C/c1ccco1)c1ccncc1
    -0.6, /, /, 105, -5, i, 0.8
- Cc1cnc(C(=O)Nc2nnc(C3CC3)s2)cn1
    -2.5, 5, 88, 99, 1, i, 0.8
- Cc1ccc(-c2nnn(CC(=O)Nc3nnc(C(C)C)s3)n2)cc1
    /, 55, 103, 105, -5, i, 1.1
- N#Cc1c(Nc2cccc(F)c2)sc2c(O)cc(=O)[nH]c12
    /, /, /, 99, -1, i, 1.5
- CN(C(=O)CSc1nnc(C(F)(F)F)n1N)C1CCS(=O)(=O)C1 (configuration not stated)
    /, /, /, 101, /, i, 1
- O=C(C1CCCO1)N1CCN(C(c2ccccc2)c2ccccc2)CC1 (configuration not stated)
    -1.5, -4, 197, 123, -14, i, 0.88
- CC1(C)Oc2ccc(NC(=O)C3COc4ccccc4O3)cc2O1 (configuration not stated)
    -1.5, 57, 151, 101, -13, i, 0.75
